# HPGD inh = blocks human HPGD enzyme activity; P15428; purified HPGD, NADH fluorescence kinetic, PGE2 substrate; Potency, µM, without a hit: at the top dose activity change, negative = inhibition, hits mostly inhibitors; hit rate 4.3% among 150,000; active = well fitted inhibition curve with a large enough effect (not every such curve was filed as active); inconclusive = small, poorly fitted or top-dose-only effect, or another doubt; inactive = no such curve, though single readings can be large or run the other way;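 also: top concentration of the series not given in the record; plate controls included wells without enzyme; inactives centre near -10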
#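 NADH formation kinetics: reaction with 30 uM PGE2 and 1 mM NAD+ (final), 20 nM enzyme, Tris-HCl pH 8 with Tween 20, after 15 min compound preincubation at room temperature. Fluorescence change, last versus first of five reads.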
# Starred values were filed as active, the others as inactive. % is scaled to controls: 0 for no effect and ±100 for the full control effect; potency is read from the fitted curve at half-maximal effect. A portion of the library (hit frequency here may not be typical).
CCCCOCCCNC(=O)Cc1ccccc1OC
- HPGD inh = -7%

CCCc1cc(=O)oc2cc(OCc3cc(OC)c(OC)c(OC)c3)c(Cl)cc12
- HPGD inh = -21%

N#Cc1c(-c2ccc(Cl)cc2)ccn2nc(C3CCCCC3)nc12
- HPGD inh = -12%

Cc1ccccc1C(=O)NC1CCN(CC(=O)Nc2nccs2)CC1
- HPGD inh = -13%

CCN(CC)c1ccc(NS(=O)(=O)c2ccc3c(c2)oc(=O)n3C)c(C)c1
- HPGD inh = 13µM*

Cc1c(Cl)cccc1NC(=O)CCCCCN1C(=O)CCC1=O
- HPGD inh = -10%

Cc1ccc(CCN2C(=O)CCC2(C)C(=O)NC2CCCC2)cc1 (centres undefined)
- HPGD inh = -12%

COc1cc(OC)cc(C(=O)NNC(=O)Cc2ccc(OC)c(S(=O)(=O)N3CCOCC3)c2)c1
- HPGD inh = -24%

COC(=O)c1ccc(C(NC(=O)OCc2ccccc2)/C(=C/[C@@H](C)C(=O)NCc2cc(C)n(C)n2)c2cccnc2)cc1 (some centres undefined)
- HPGD inh = -2%

CCOc1ccc2nc(NCCNC(=O)Nc3ccccc3)c(C#N)cc2c1
- HPGD inh = -15%
